High-throughput results from PubChem BioAssay.
AF4-AF9 inh – MLL-AF4/AF9 protein interaction inhibition; P42568; AlphaScreen, biotin-AF4 peptide binding to FLAG-AF9; inhibition, % at 10 µM; 350,000 tested, 0.47% active;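 active = every replicate reaching a set inhibition limit, whatever the replicate mean, cut at about 25% in these data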;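 also: 0% = plate neutral control median and 100% = total signal loss; the record names both 10 and 1 µM as test concentration; the first replicate is given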
Target sequence (P42568 whole entry, looked up): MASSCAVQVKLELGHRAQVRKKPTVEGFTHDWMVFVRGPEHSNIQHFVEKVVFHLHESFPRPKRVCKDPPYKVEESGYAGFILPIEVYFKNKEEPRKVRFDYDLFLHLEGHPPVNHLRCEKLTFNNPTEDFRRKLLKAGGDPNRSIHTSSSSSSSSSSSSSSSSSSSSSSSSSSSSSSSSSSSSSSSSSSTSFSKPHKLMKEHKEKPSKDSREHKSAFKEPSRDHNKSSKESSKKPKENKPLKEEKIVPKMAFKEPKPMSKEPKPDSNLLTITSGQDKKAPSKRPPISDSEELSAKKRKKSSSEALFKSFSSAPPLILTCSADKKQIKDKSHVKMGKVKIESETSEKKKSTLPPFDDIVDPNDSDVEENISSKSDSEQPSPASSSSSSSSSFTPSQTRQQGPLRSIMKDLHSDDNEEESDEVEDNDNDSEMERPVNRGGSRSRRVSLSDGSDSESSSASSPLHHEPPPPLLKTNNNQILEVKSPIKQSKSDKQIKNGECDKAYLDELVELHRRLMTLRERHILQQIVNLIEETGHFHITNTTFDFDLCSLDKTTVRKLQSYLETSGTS
Ecoli rRNA inh – inhibitors of bacterial rRNA selective over humanized ribosomes. E. coli WT GFP vs humanized-ribosome RFP mutants, fluorescence, 24 h; active compounds read low; DMSO median 0, no signal -100. GFP signal change (wild-type ribosome), % (test concentration not listed). 350,000 tested, 1.6% active. AID 720706;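 active = significant combined selectivity score with lowered wild-type GFP, culture density cut under 30%, mutant RFP and density less affected; inactive = any of these conditions unmet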; also: one replicate is shown; some compounds called inactive have numbers as strong as hits
FGF22 binding – binders of recombinant human FGF22 by thermal shift; Q9HCT0; SYPRO orange fluorescence; percent of sucrose octasulfate shift, DMSO zero; calls only at 9.99 µM; 340,000 tested, 1.5% active; AID 651658;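 active = melting point raised past a set limit in the mean and every replicate; three in four hits are not shown here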
Target sequence (Q9HCT0 whole entry, looked up): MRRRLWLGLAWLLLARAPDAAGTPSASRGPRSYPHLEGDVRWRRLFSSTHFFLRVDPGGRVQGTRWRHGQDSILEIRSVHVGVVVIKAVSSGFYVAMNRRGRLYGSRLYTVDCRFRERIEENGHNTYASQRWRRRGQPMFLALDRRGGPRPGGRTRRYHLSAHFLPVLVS
Ecoli rRNA inh OD600 – recorded beside Ecoli rRNA inh, whose call it bears; OD600 change, %; measured here: OD600 growth;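 optical density of the mix in the first replicate; 0 = DMSO median and -100 = no signal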
Ecoli rRNA inh RFP – second read-out of Ecoli rRNA inh, no call of its own (marks repeat the call); RFP signal change, %; measured here: RFP humanized mutant strains;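 first replicate; 0 = DMSO median and -100 = no signal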
* = called active by the depositor; i = inactive; & = joins results of further samples.

Molecule	AF4-AF9 inh	Ecoli rRNA inh OD600	Ecoli rRNA inh	FGF22 binding	Ecoli rRNA inh RFP
O=C([C@H]1[C@H](CO)[C@H]2Cn3c(ccc(-c4ccncc4)c3=O)[C@@H]1N2CCC(F)(F)F)N1CCCCC1	-3.3	1.8	-0.3	i	-4.5
CCCNC(=O)N1CCC2(CC1)CN(C(=O)COC)[C@@H](CO)c1c2c2ccc(OC)cc2n1C	-10.7	6.4	2.1	i	-0.4
CC=Cc1ccc2n(c1=O)C[C@H]1[C@H](CO)[C@@H](C(=O)NCC)[C@@H]2N1Cc1ccccc1 (mixture of isomers)	-1.7	3.6	1.6	i	-4.5
O=C([C@@H]1[C@@H](CO)[C@@H]2Cn3c(ccc(C4=CCCC4)c3=O)[C@H]1N2C(=O)c1ccncc1)N1CCCCC1	-0.2	5.9	3.3	i	-4.0
Cc1ccc(S(=O)(=O)Nc2cccc3c2O[C@@H](CN(C)Cc2ccccc2)[C@H](C)CN([C@@H](C)CO)C3=O)cc1	-4.3	2.4	2.0	i	-0.4
C[C@@H]1CN([C@@H](C)CO)C(=O)c2ccccc2-c2ccccc2CO[C@H]1CN(C)S(=O)(=O)c1cn(C)cn1	4.3	0.6	-1.3	i	-0.7
C[C@@H]1CN([C@H](C)CO)S(=O)(=O)c2ccc(C3=CCCC3)cc2O[C@@H]1CN(C)CC1CCCCC1	9.9	-12.4	-2.2	i	17.0
CC(C)C#Cc1cnc2c(c1)C(=O)N([C@@H](C)CO)C[C@@H](C)[C@H](CN(C)C(=O)CC1CC1)O2	-10.1	2.2	-0.4	i	0.1
O=C(CCSc1nc(-c2ccccc2)c(-c2ccccc2)o1)N1CCCCC1	4.1	-5.5	-1.3	i	4.8
C[C@H](CO)N1C[C@H](C)[C@@H](CN(C)S(=O)(=O)c2ccc(F)cc2)OCCCC[C@H](C)Oc2ccc(NC(=O)CCC(F)(F)F)cc2C1=O	-10.7	1.0	0.9	i	1.8
O=C(CCN1CCCCC1)N[C@H]1CC[C@H](CCn2cc(-c3ccc(F)cc3)nn2)O[C@H]1CO	0.8	9.3	5.8	i	0.6
Cc1noc(C)c1S(=O)(=O)N(C)C[C@H]1Oc2ccc(NC(=O)Cn3cnnn3)cc2CC(=O)N([C@@H](C)CO)C[C@H]1C	-0.8	0.1	2.7	i	0.4
CC(=O)Nc1cccc(-c2csc(C(NC(C)=O)c3ccc(F)c(F)c3)n2)c1 (stereo not given)	3.5	-13.2	-8.6	i	7.5
Cc1ccc(-c2cnc3c(c2)C(=O)N([C@H](C)CO)C[C@@H](C)[C@@H](CN(C)Cc2ccccc2F)O3)cc1	-7.8	-3.8	-3.8	i	3.4
COc1ccc(OC(=O)N(C)C[C@H]2OCc3ccccc3-c3ccccc3C(=O)N([C@H](C)CO)C[C@@H]2C)cc1	3.4	-8.3	-4.0	i	-0.5
C[C@H](CO)N1C[C@H](C)[C@@H](CN(C)S(=O)(=O)c2cn(C)cn2)Oc2ccc(NC(=O)CCCCCC(=O)Nc3ccccc3N)cc2C1=O	-2.5	3.8	0.1	i	-1.6
C[C@H]1CN([C@@H](C)CO)C(=O)c2cccc(NS(=O)(=O)c3ccc(F)cc3)c2O[C@@H]1CN(C)S(=O)(=O)c1ccc(F)cc1	-0.9	-2.9	-1.0	i	1.0
CCOC(=O)CCC1(C(=O)OC)C(=O)CCCCCC=C1C(=O)OC (stereo not given)	2.0	11.2	5.5	i	1.4
CN1C(=O)c2cc(NC(=O)Cc3ccccc3)ccc2OC[C@H]2O[C@@H](CC(=O)NCC3CC3)CC[C@H]21	-1.7	-2.6	1.6	i	0.3
O=c1[nH]cc(CCCc2ccccc2)c(=O)[nH]1	-4.2	9.4	-2.0	i	-5.9

Remaining list, next part.
Molecule	AF4-AF9 inh	Ecoli rRNA inh OD600	Ecoli rRNA inh	FGF22 binding	Ecoli rRNA inh RFP
C[C@H]1CN([C@@H](C)CO)C(=O)Cc2cc(NC(=O)Nc3cccc4ccccc34)ccc2O[C@@H]1CN(C)S(C)(=O)=O	7.6	2.3	-6.9	i	-0.5
CO[C@@H]1CN(C)C(=O)c2ccc(NC(=O)Nc3ccccc3Cl)cc2OC[C@@H](C)NC[C@@H]1C	2.1	1.4	-2.1	i	1.9
COc1ccccc1CN1[C@@H]2Cn3c(ccc(C4=CCCC4)c3=O)[C@H]1[C@@H](C(=O)N(C)C)[C@@H]2CO	0.2	3.0	0.7	i	0.1
COc1ccc(S(=O)(=O)Nc2ccc3c(c2)CC(=O)N([C@@H](C)CO)C[C@@H](C)[C@H](CN(C)C(=O)NC(C)C)O3)cc1	-3.7	11.9	4.6	i	-2.3
C[C@@H]1CN([C@H](C)CO)C(=O)c2cccc(NS(=O)(=O)c3ccccc3)c2O[C@H]1CN(C)C(=O)Nc1ccc(F)cc1	-1.9	-0.3	4.1	i	-0.1
COc1ccc2c3c(n(C)c2c1)[C@H](CO)NCC31CN(Cc2ccncc2)C1	4.5	-4.9	-0.8	i	-0.2
CCc1nc2c(OCC(N)=O)cccn2c1N(C)C(=O)c1cccs1	-2.7	3.8	7.8	i	-0.1
CCC(=O)NC[C@@H]1[C@H](c2ccc(-c3ccccc3)cc2)[C@H](CO)N1C(=O)C1CC1	0.4	-1.3	-4.9	i	-0.7
O=C(C[C@H]1CC[C@@H]2[C@H](COC[C@@H](O)CN2CC2CCOCC2)O1)NCC1CC1	-1.3	4.6	5.5	i	0.5
CO[C@@H]1CN(C)C(=O)c2ccc(NC(=O)c3ccc(Oc4ccccc4)cc3)cc2OC[C@H](C)NC[C@H]1C	11.1	-11.6	-5.0	i	17.1
O=C(NCC[C@H]1CC[C@H](NS(=O)(=O)c2cccc(F)c2)[C@@H](CO)O1)c1cnccn1	2.5	0.1	-1.3	i	-1.0
Cc1ccc(-c2cnc3c(c2)C(=O)N([C@@H](C)CO)C[C@@H](C)[C@H](CN(C)C(=O)Cc2ccncc2)O3)cc1	2.5	-1.7	-5.7	i	-1.4
O=C(NCc1ccc(F)cc1)c1cc(C2CCCN(C(=O)c3cccs3)C2)on1 (stereo not given)	-1.0	-7.2	-3.8	i	3.4
O=S(=O)(N[C@H]1CC[C@H](CCn2cc(-c3cccc(F)c3)nn2)O[C@@H]1CO)c1ccccc1	0.0	-3.6	-1.4	i	-1.2
CO[C@H]1CN(C)C(=O)c2ccc(NC(=O)C3CCCC3)cc2OC[C@@H](C)N(C)C[C@H]1C	-2.2	-2.9	0.9	i	-2.1
Cc1ccc(S(=O)(=O)N(C)C[C@@H]2Oc3ccc(NC(=O)Nc4ccc(F)cc4)cc3C(=O)N([C@H](C)CO)C[C@H]2C)cc1	1.5	-17.2	-7.3	i	2.7
Cc1ccc(CN2C(=O)C(C)Sc3ccc(C#N)cc32)cc1 (stereo not given)	-2.3	-36.3	-8.7	i	-20.3
Cc1cc(Cl)ccc1C(O)c1ncc(-c2ccc(C(F)(F)F)cc2)[nH]1 (stereo not given)	9.3	-81.4	-54.6	i	-17.8
Cc1noc(C)c1NC(=O)N[C@@H]1CC[C@@H](CCNC(=O)C2CC2)O[C@H]1CO	-2.4	-2.6	3.0	i	-0.4
C[C@H](CO)N1C[C@H](C)[C@H](CN(C)C(=O)Nc2ccc3c(c2)OCO3)Oc2c(NC(=O)Nc3ccc4c(c3)OCO4)cccc2C1=O	5.5	6.4	1.1	i	-2.2

Next section
Molecule	AF4-AF9 inh	Ecoli rRNA inh OD600	Ecoli rRNA inh	FGF22 binding	Ecoli rRNA inh RFP
C[C@H](CO)N1C[C@H](C)[C@H](CN(C)Cc2cccc(C(F)(F)F)c2)OCc2cn(nn2)CCCC1=O	0.5	1.8	-0.4	i	1.1
Nc1ccc2cc3[nH]c4cc(N)ccc4c3nc2c1	-9.2	19.2	59.5	i	0.3
Cc1noc(C)c1NC(=O)Nc1ccc2c(c1)C(=O)N([C@H](C)CO)C[C@H](C)[C@H](CN(C)C(=O)Nc1ccc(F)cc1)OCCCC[C@H](C)O2	-2.7	-4.5	-1.2	i	-0.4
Cn1nc(C2CC2)cc1NC(=O)C1(C)CCN1C(=O)Cc1ccc(-c2ccccc2)cc1 (stereo not given)	3.9	-53.5	-22.5	i	17.6
Cc1noc(C)c1NC(=O)Nc1ccc2c(c1)C(=O)N([C@H](C)CO)C[C@H](C)[C@@H](CN(C)CC1CC1)OCCCC[C@@H](C)O2	-7.3	13.9	2.9	i	-3.8
C[C@H](CO)N1C[C@H](C)[C@H](CN(C)S(=O)(=O)c2ccccc2)Oc2ncc(-c3ccc(F)cc3)cc2C1=O	-0.9	4.3	2.0	i	1.4
COc1ccc2c3c([nH]c2c1)[C@H](CO)N(C(=O)NC(C)C)CC31CN(C(=O)C2CCCC2)C1	3.5	0.9	0.8	i	-4.6
C[C@H]1CN([C@@H](C)CO)C(=O)Cc2cc(NS(=O)(=O)c3ccc(Cl)cc3)ccc2O[C@@H]1CN(C)C(=O)Nc1ccc(C(F)(F)F)cc1	-0.4	-9.9	-4.1	i	-0.2
C[C@H]1CN([C@@H](C)CO)C(=O)c2cccc(NS(=O)(=O)c3ccc(F)cc3)c2O[C@@H]1CN(C)C(=O)Nc1ccc2c(c1)OCO2	-1.3	1.3	1.4	i	0.8
COc1ccc(C(C#N)=Cc2cccc(OC)c2OC)cc1	14.5	-34.8	-11.8	i	-11.5
CS(=O)(=O)Nc1ccc2c(c1)[C@@H]1C[C@H](CC(=O)NCc3ccccc3)O[C@@H](CO)[C@@H]1O2	-2.1	1.9	2.1	i	-1.8
CC(C)NC(=O)N1[C@H](CO)[C@@H](c2ccccc2)C12CN(Cc1ccccc1)C2	1.4	-8.6	-1.6	i	1.6
CC(C)C#Cc1cnc2c(c1)C(=O)N([C@H](C)CO)C[C@@H](C)[C@H](CN(C)C(=O)Cc1ccccn1)O2	-11.0	6.2	-0.8	i	-1.9
CO[C@@H]1CN(C)C(=O)c2ccc(NC(=O)c3cccc(F)c3)cc2OC[C@H](C)N(C(C)=O)C[C@H]1C	1.2	7.1	0.9	i	0.1
Cc1cccc(C(=Cc2ccc([N+](=O)[O-])cc2)C(=O)O)c1	0.9	-7.8	-8.8	i	-7.0
CC(=O)N1C(=O)C2(NCC(C)N2)c2ccccc21 (stereo not given)	-3.0	19.3	16.3	i	1.0
C[C@H](CO)N1C[C@H](C)[C@@H](CN(C)S(=O)(=O)c2ccccc2)Oc2c(NC(=O)Nc3ccccc3)cccc2C1=O	-1.3&-0.6	-13.7	-1.3	i	3.2
COc1ccc(CNC(=O)N(C)C[C@@H]2OCc3ccccc3-c3c(n(C)c4ccccc34)C(=O)N([C@H](C)CO)C[C@H]2C)cc1	-17.4	-0.2	0.6	i	0.4
C/C=C/c1ccc2c(c1)O[C@H](CN(C)C(=O)Nc1ccc(C(F)(F)F)cc1)[C@@H](C)CN([C@@H](C)CO)S2(=O)=O	3.8	-6.7	-0.7	i	5.3
O=C(C1CC1)N1[C@@H]2CN(S(=O)(=O)c3ccc(F)cc3)c3ccccc3[C@@H]2[C@@H]1CO	-2.4	4.6	1.0	i	-0.5

Other entries
Molecule	AF4-AF9 inh	Ecoli rRNA inh OD600	Ecoli rRNA inh	FGF22 binding	Ecoli rRNA inh RFP
COC(=O)[C@]12CCCCC=C1N(CCc1ccc(OC)c(OC)c1)C(=O)[C@H](CC(=O)N1CCOCC1)C2	1.1	13.6	21.4	i	0.5
Cc1cccc(S(=O)(=O)N2C[C@H](O)COC[C@@H]3O[C@H](CC(=O)N4CCN(C)CC4)CC[C@H]32)c1	-23.5	12.3	7.2	i	-3.0
CC(C)NC(=O)N(C)C[C@@H]1Oc2cc(C#CC(C)(C)O)ccc2S(=O)(=O)N([C@@H](C)CO)C[C@H]1C	-2.3	-0.9	-1.6	i	-3.6
O=C(C[C@H]1CC[C@H]2[C@@H](COC[C@H](O)CN2Cc2ccncc2)O1)NCc1ccccc1Cl	-1.6	0.3	-1.8	i	-1.1
CSCCC(C(=O)NC1CCCC1)n1c(-c2ccncc2)nc2ccccc21 (stereo not given)	1.2	17.8	20.0	i	1.9
COc1ccc(S(=O)(=O)N(C)C[C@H]2Oc3c(NS(=O)(=O)c4ccccc4)cccc3C(=O)N([C@H](C)CO)C[C@@H]2C)cc1	-0.3	-4.2	-3.5	i	-1.2
CC(C)NC(=O)Nc1cccc2c1O[C@@H](CN(C)Cc1ccc(Oc3ccccc3)cc1)[C@@H](C)CN([C@@H](C)CO)C2=O	1.3	0.1	1.5	i	-2.1

Sorted by value in Ecoli rRNA inh RFP (lowest first): some entries from above
compound	AF4-AF9 inh	Ecoli rRNA inh OD600	Ecoli rRNA inh	FGF22 binding	Ecoli rRNA inh RFP
CC(C)NC(=O)Nc1cccc2c1O[C@@H](CN(C)Cc1ccc(Oc3ccccc3)cc1)[C@@H](C)CN([C@@H](C)CO)C2=O	1.3	0.1	1.5	i	-2.1
COc1ccc(S(=O)(=O)N(C)C[C@H]2Oc3c(NS(=O)(=O)c4ccccc4)cccc3C(=O)N([C@H](C)CO)C[C@@H]2C)cc1	-0.3	-4.2	-3.5	i	-1.2
O=C(C[C@H]1CC[C@H]2[C@@H](COC[C@H](O)CN2Cc2ccncc2)O1)NCc1ccccc1Cl	-1.6	0.3	-1.8	i	-1.1
CSCCC(C(=O)NC1CCCC1)n1c(-c2ccncc2)nc2ccccc21 (stereo not given)	1.2	17.8	20.0	i	1.9

Not all compounds are listed. The share of hits here may be higher or lower than overall.
